# Screening data: PubChem BioAssay, several laboratories
# VCAM-1 up imaging = boosters of cytokine-driven VCAM-1 levels – imaging, high-content imaging, pooled HUVEC, TNFa stimulus (AID 457); Pooled HUVEC, TNFa-induced VCAM-1 immunofluorescence imaging; hits of this screen are not shown here; calls only; 10,000 compounds, 0.2% hits;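 active means a top-ranked rise in VCAM-1 staining upheld on image or statistical review; inactive means the rest, including candidates rejected on review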;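 further: compounds tested at 5 µM in the well; cells exposed to compound for 24 hours before fixing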
# FPR binder = binds the human formylpeptide receptor FPR; P21462; FPR-expressing cells, fluorescent ligand binding, flow cytometry; inhibition, %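 (tested at 6.7 µM)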; 24,000 compounds, 0.74% hits; AID 440;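 further: 0% = buffer wells and 100% = receptor blocker peptide wells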
# Target sequence (P21462 whole entry, looked up): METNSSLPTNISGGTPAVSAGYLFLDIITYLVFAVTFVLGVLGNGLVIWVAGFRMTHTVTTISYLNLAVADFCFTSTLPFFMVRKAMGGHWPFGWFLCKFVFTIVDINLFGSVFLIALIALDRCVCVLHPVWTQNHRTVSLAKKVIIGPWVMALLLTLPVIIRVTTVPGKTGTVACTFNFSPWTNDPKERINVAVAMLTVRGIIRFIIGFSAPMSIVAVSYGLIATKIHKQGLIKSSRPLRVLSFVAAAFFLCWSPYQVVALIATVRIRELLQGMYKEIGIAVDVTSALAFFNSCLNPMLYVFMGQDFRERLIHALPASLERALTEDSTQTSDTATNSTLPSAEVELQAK
# VCAM-1 down imaging = inhibitors of TNFa-induced VCAM-1 surface display, imaging, high-content imaging, pooled HUVEC, TNFa stimulus (AID 456); HUVEC TNFa-induced VCAM-1 surface expression, immunofluorescence imaging; numbers were filed only for top-ranked candidate wells; one-dose inhibition, % at 5 µM; IC50 in µM for titrated hits; 10,000 compounds, 0.2% hits;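 active means top tenth filtered wells with inhibition above zero that passed visual or statistical confirmation; inactive means the rest, including hits rejected on review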;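 further: 0% = stimulated vehicle wells and 100% = unstimulated cells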
# FPRL1 ligand = binds the human formylpeptide receptor-like-1 FPRL1. FPRL1-expressing cells, fluorescent ligand binding inhibition, flow cytometry. inhibition, %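 (tested at 6.7 µM)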. 24,000 compounds, 0.3% hits;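 further: 0% = buffer alone and 100% = receptor blocker peptide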
# Target sequence (P25090 whole entry, looked up): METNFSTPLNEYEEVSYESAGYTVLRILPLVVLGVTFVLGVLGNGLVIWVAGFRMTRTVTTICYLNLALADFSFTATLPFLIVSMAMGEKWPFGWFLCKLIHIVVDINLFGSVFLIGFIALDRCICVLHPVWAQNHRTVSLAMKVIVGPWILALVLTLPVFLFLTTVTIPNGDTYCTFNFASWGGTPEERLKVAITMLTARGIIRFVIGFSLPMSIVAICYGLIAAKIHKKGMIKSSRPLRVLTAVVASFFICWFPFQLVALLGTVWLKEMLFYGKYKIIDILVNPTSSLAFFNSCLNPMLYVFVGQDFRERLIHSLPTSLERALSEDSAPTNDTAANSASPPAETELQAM
# VCAM-1 inhibition = inhibitors of TNFa-induced VCAM-1 surface display, cell-based, plate reader, pooled HUVEC, TNFa stimulus (AID 454). HUVEC TNFa-induced VCAM-1 surface immunofluorescence, plate reader; numbers were filed only for top-ranked candidate wells. inhibition, % at 5 µM. 10,000 compounds, 0.2% hits;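 active means compound among top-ranked inhibitors of TNF-induced VCAM-1 adhesion protein staining, with the hit upheld by image or statistical review; inactive means the rest, including hits rejected on review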;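 further: 0% = TNFa with vehicle and 100% = cells without TNFa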
# Starred values were filed as active, the others as inactive; i = inactive; nt = no result given.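 How the source made its calls, unless noted: active means mean above 30%; inconclusive means self-fluorescent; inactive means the rest.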
# Every second line gives: VCAM-1 down imaging | FPRL1 ligand | VCAM-1 inhibition | FPR binder | VCAM-1 up imaging
Cc1ccc(-c2nnc(SCC(=O)N3CCCC3)o2)cc1C
→ nt | 7 | nt | -4 | nt
CCOc1cccc(C(=O)Nc2cc(-c3nn4c(C)nnc4s3)ccc2C)c1
→ nt | -4 | nt | 8 | nt
CCn1cc(C(=O)NCc2ccc(C)o2)c2cc(OC)c(OC)cc2c1=O
→ nt | 8 | nt | 10 | nt
CSC1=NCCN1C(=O)COc1ccccc1
→ nt | -2 | nt | 2 | nt
CCC1SC2=NCN(c3ccccc3)CN2C1=O (configuration not stated)
→ nt | -2 | nt | -3 | nt
Cn1c(C(=O)NCC2CCCO2)cc2c(=O)n3ccccc3nc21 (configuration not stated)
→ nt | 1 | nt | 3 | nt
CC1CCCCC1NC(=O)C1Cc2ccccc2CN1S(C)(=O)=O (configuration not stated)
→ nt | -1 | nt | 4 | nt
NC(=O)OCC(COC(N)=O)c1ccccc1
→ i | -4 | i | 2 | i
N#CC1=C2SCN(c3ccccc3)CN2C(=O)CC1c1c(Cl)cccc1Cl (configuration not stated)
→ nt | -5 | nt | 0 | nt
Cc1ccc2c(c1)N(CCCC(=O)NCc1ccc3c(c1)OCO3)C(=O)CO2
→ nt | 2 | nt | 8 | nt
Cc1ccnc(N2C(=O)c3ccccc3C2Nc2ccccc2Cl)c1 (configuration not stated)
→ nt | 2 | nt | -3 | nt
CCC(=O)Nc1cc(Cl)ccc1N1CCN(C(=O)CC)CC1
→ i | -2 | i | 19 | i
O=C(Cn1cnc2c(nnn2Cc2ccc(F)cc2)c1=O)NCC1CCCO1 (configuration not stated)
→ nt | 0 | nt | -1 | nt
COc1ccc(NC(=O)CN(c2cc(C)cc(C)c2)S(=O)(=O)c2c(C)noc2C)cc1OC
→ i | -6 | i | -1 | i
COc1ccc(NC(=O)CSc2nnc(Cc3cccn3C)n2-c2ccc(F)cc2)cc1
→ i | 4 | i | 14 | i
Cc1cc(NC(=O)c2noc3c2CCCC3)n(-c2ccccc2)n1
→ nt | 1 | nt | 6 | nt
CCOC(=O)Cn1ncc(-c2ccccc2)c1N
→ i | -4 | i | 2 | i
C[C@]12CC[C@@H]3c4ccc(O)cc4CC[C@H]3[C@@H]1CCC2=O
→ i | -5 | i | 2 | i
Cc1cc(N2CCN(c3ccccn3)CC2)n2nc(C)nc2n1
→ i | 3 | i | 26 | i
COc1ccc(C)cc1NC(=O)c1cnc2n(c1=O)CCS2
→ nt | 0 | nt | 1 | nt
CC(=O)Oc1cc(C(C)C)c(OCCN(C)C)cc1C
→ i | -2 | i | 2 | i
Cc1ccc(CCNC(=O)C2CCN(c3nn4c(=O)cc(C)nc4s3)CC2)cc1
→ nt | 4 | nt | -2 | nt
COC(=O)c1nnn(-c2nonc2N)c1-c1cccs1
→ nt | -2 | nt | -3 | nt
CCn1c(=S)sc2nc(C)sc21
→ i | 8 | i | 18 | i
CNC(=O)c1ccc2snnc2c1
→ nt | -2 | nt | 2 | nt
Cc1ccc2c(c1)c1c(n2CC(O)Cn2c(C)nc3ccccc32)/C(=N\O)CCC1 (configuration not stated)
→ i | -6 | i | -3 | i
O=C(CCn1c(=O)sc2ccccc21)NCCC1=CCCCC1
→ nt | -4 | nt | 2 | nt
COc1ccc(-c2noc(CCC(=O)NCCN(C)Cc3ccccc3)n2)cc1
→ nt | 7 | nt | -8 | nt
COc1cccc(C(=O)CN2CCN(S(=O)(=O)c3ccc(Br)cc3)CC2)c1
→ nt | -3 | nt | 4 | nt
O=C(NC1CCCC1)C1CCN(S(=O)(=O)c2cccc3cccnc23)CC1
→ nt | -6 | nt | 7 | nt
CCCOC(=O)c1[nH]c2c(c1C)C(=O)CC(c1ccc(OC)c(OC)c1)C2 (configuration not stated)
→ i | -3 | i | -4 | i
CCOC(=O)C1CCN(S(=O)(=O)c2cc(Cl)c(C)cc2OC)CC1
→ i | 4 | i | 20 | i
Cc1cc(NC(=O)CSc2nc3ccsc3c(=O)n2Cc2ccccn2)n[nH]1
→ nt | -3 | nt | -1 | nt
CCN1C(=O)c2cccc3c(S(=O)(=O)Nc4ccc(OC)cc4OC)ccc1c23
→ nt | -1 | nt | -7 | nt
O=c1c2ccccc2nc(SCc2nc(-c3ccccc3)no2)n1-c1ccc(F)cc1
→ i | 5 | i | 0 | i
CCn1cc(C2Nc3ccccc3C(=O)N2O)c(C)n1 (configuration not stated)
→ i | -3 | i | -11 | i
COc1cccc(-n2c(Cc3cc(=O)[nH]c(=O)[nH]3)nnc2SCC(=O)NC2CCCC2)c1
→ nt | -1 | nt | -2 | nt
COC(=O)Nc1sc2c(c1C(=O)N1CCOCC1)CCC(C)C2 (configuration not stated)
→ i | 11 | i | 1 | i
COc1cccc(C(=O)Oc2cc(N)n(S(=O)(=O)c3ccc(C)cc3)n2)c1OC
→ nt | -2 | nt | 0 | nt
c1ccc2c(c1)CCCn1nnnc1-2
→ nt | 1 | nt | 0 | nt
COc1nonc1NCn1nc(C)cc1C
→ nt | -4 | nt | -6 | nt
O=C(NCc1cccnc1)c1cc(-c2cccs2)on1
→ nt | -3 | nt | -9 | nt
O=S(=O)(c1ccc2c(c1)OCCO2)N1CCC(n2nnc3cc(F)ccc32)CC1
→ i | 0 | i | 5 | i
CCCS(=O)(=O)N1CCN(Cc2ccco2)CC1
→ nt | 0 | nt | 9 | nt
Cc1ccc(-c2noc(CSc3nc(N)cc(N)n3)n2)cc1
→ nt | -7 | nt | 1 | nt
CC(=O)Nc1ccc(NC(=O)c2cccc(C(=O)OC(C)C)n2)cc1
→ nt | -2 | nt | 4 | nt
COc1cc(OC)cc(C(=O)N2CCN=C2SCc2cccnc2)c1
→ nt | -1 | nt | 4 | nt
CCOC(=O)c1c(NC(=O)c2ccn(CC)n2)sc2c1CCCC2
→ i | -8 | i | -4 | i
COc1ccc(C2C(C(=O)c3ccco3)=C(O)C(=O)N2CCOCCO)cc1OC (configuration not stated)
→ nt | 4 | nt | -4 | nt
CSCCC1(C(=O)O)NC(c2ccccc2O)C2C(=O)N(C(C)C)C(=O)C21 (configuration not stated)
→ nt | -1 | nt | 27 | nt
CN(CCNC(=O)C1CCN(S(=O)(=O)N2CCOCC2)CC1)CCc1ccccc1
→ nt | -2 | nt | -1 | nt
CCS(=O)(=O)N1CCCC(C(=O)NCCCOC)C1 (configuration not stated)
→ nt | 2 | nt | 8 | nt
CCOC(=O)CSc1nnc(NCC(=O)OC(C)C)c(=O)[nH]1
→ i | 4 | i | 11 | i
COC(=O)c1nc2n(n1)C(c1ccccc1OC)C1=C(CCCC1=O)N2 (configuration not stated)
→ nt | 0 | nt | 2 | nt
CSC1=NCCN1C(=O)c1c(F)cccc1F
→ nt | -6 | nt | -3 | nt
COc1cc2cc(C(c3nnnn3C3CCCC3)N3CCCCCC3)c(=O)[nH]c2cc1OC (configuration not stated)
→ i | -4 | i | 8 | i
Cc1cccc(NC(=O)c2cc3n(n2)C(C(F)(F)F)CC(c2ccc4c(c2)OCO4)N3)c1 (configuration not stated)
→ i | -1 | i | -3 | i
COCCn1c(C)cc(C(=O)CSc2nc3ccccc3c(=O)[nH]2)c1C
→ i | -1 | i | -3 | i
Nc1nnc(N2CCCCCC2)s1
→ nt | 3 | nt | 1 | nt
Cc1cc(=O)n2nc(N3CCCC(C(=O)N4CCc5ccccc54)C3)sc2n1 (configuration not stated)
→ i | -1 | i | 0 | i

# Single records (already shown). Order of screens: VCAM-1 down imaging	FPRL1 ligand	VCAM-1 inhibition	FPR binder	VCAM-1 up imaging
# CCOC(=O)CSc1nnc(NCC(=O)OC(C)C)c(=O)[nH]1 as listed: i	4	i	11	i
# CC(=O)Nc1ccc(NC(=O)c2cccc(C(=O)OC(C)C)n2)cc1 as listed: nt	-2	nt	4	nt
# COc1cc(OC)cc(C(=O)N2CCN=C2SCc2cccnc2)c1 as listed: nt	-1	nt	4	nt
# CSCCC1(C(=O)O)NC(c2ccccc2O)C2C(=O)N(C(C)C)C(=O)C21 (configuration not stated) as listed: nt	-1	nt	27	nt

# (continued)
# Every second line gives: VCAM-1 down imaging | FPRL1 ligand | VCAM-1 inhibition | FPR binder | VCAM-1 up imaging
CCOC(=O)c1cccc(NC(=O)CCNS(=O)(=O)c2ccc3c(c2)CCN3C(=O)CC)c1
→ nt | 6 | nt | 7 | nt
CCn1c(=O)c2cc(S(=O)(=O)NCc3ccccc3)ccc2n(CC)c1=O
→ i | 7 | i | 1 | i
COc1ccc2[nH]cc(CCNC(=O)C3CCCNC3=O)c2c1 (configuration not stated)
→ nt | -2 | nt | -9 | nt
Cn1c(CN2CCOCC2)nc2cc(NC(=O)c3ccccc3Cl)ccc21
→ i | 3 | i | 3 | i
CCOc1cc2[nH]c(=S)n(Cc3ccc(C)o3)c(=O)c2cc1OCC
→ nt | -7 | nt | 2 | nt
Cc1nnc(N2C(=O)C(O)=C(C(=O)c3ccco3)C2c2ccc(F)cc2)s1 (configuration not stated)
→ i | 1 | i | 2 | i
N=c1nc(-c2ccccc2)ccn1O
→ nt | -2 | nt | -3 | nt
O=C(NCCN1CCOCC1)C1CC(=O)N(c2ccc(F)c(Cl)c2)C1 (configuration not stated)
→ i | -4 | i | -3 | i
O=C(CCS(=O)(=O)c1cccc2nonc12)NCCc1ccccc1Cl
→ nt | 13 | nt | 3 | nt
COc1ccc(OC)c(NC(=O)CCN2CCN(c3ccccc3F)CC2)c1
→ i | 8 | i | -10 | i
Cc1ccc(S(=O)(=O)C2(C(=O)Nc3ccc(F)cc3)CC2)cc1
→ nt | -13 | nt | 1 | nt
C=CCn1cnc2c(NCc3ccccc3)ncnc21
→ i | 8 | i | -6 | i
Cn1c(=O)c2c(nc(CN3CCCCC3)n2CCCc2ccccc2)n(C)c1=O
→ i | 2 | i | -1 | i
O=C(NCC12CC3CC(CC(C3)C1)C2)c1nc2ncccn2n1
→ nt | 8 | nt | -4 | nt
COCCn1nnnc1C(c1cccs1)N1CCN(c2cc(C)ccc2C)CC1 (configuration not stated)
→ i | -1 | i | 1 | i
O=S(=O)(c1ccc(Oc2ccc(-c3nnco3)cc2)nc1)N1CCC(Cc2ccccc2)CC1
→ i | 3 | i | -2 | i
CC(C)CN(CC(C)C)S(=O)(=O)N1CCC(C(=O)NC2CCCCCCC2)CC1
→ nt | 5 | nt | 27 | nt
CCOC(=O)N1CCN(C(=O)CS(=O)Cc2nc(-c3ccc(C)cc3)oc2C)CC1 (configuration not stated)
→ nt | -1 | nt | -4 | nt
Cc1ccc2cc(CCNC(=O)c3ccco3)c(=O)[nH]c2c1
→ nt | 4 | nt | 4 | nt
Cc1cc(N2CCOCC2)nc2ccc(NC(=O)C3CCC(C)CC3)cc12 (configuration not stated)
→ i | 4 | i | -5 | i
Cc1nnc(SCC(=O)N2c3ccccc3CC2C)s1 (configuration not stated)
→ i | 1 | i | -4 | i
CN(C)CCCN1C(=O)c2oc3ccc(Cl)cc3c(=O)c2C1c1cccnc1 (configuration not stated)
→ i | 2 | i | 0 | i
O=c1cc(Nc2ccc3c(c2)OCCO3)[nH]c(=O)n1-c1ccc(Br)cc1
→ nt | -3 | nt | 3 | nt
CCc1ccc(S(=O)(=O)NCCc2csc(-c3ccccc3)n2)s1
→ nt | 5 | nt | 3 | nt
O=C(c1ccc2c(c1)OCO2)N1CCCN(C(=O)c2ccc3c(c2)OCO3)CC1
→ i | 5 | i | 5 | i
C=Cn1c(N2CCOCC2)nc2c1c(=O)[nH]c(=O)n2C
→ i | 5 | i | 2 | i
CCOC(=O)c1c(CN2CCCCC2)n(C)c2ccc(OC)c(S(=O)(=O)c3ccccc3)c12
→ nt | -2 | nt | -4 | nt
C=CCn1c(COc2ccccc2)nnc1SCC(=O)C(C)(C)C
→ i | 8 | i | -5 | i
COC(=O)C1C2C=CC3(CN(C(C)C)C(=O)C13)O2 (configuration not stated)
→ nt | 0 | nt | -4 | nt
COc1ccc(NC(=O)CCS(=O)(=O)c2ccc3c(c2)CCCN3C(C)=O)cc1
→ nt | 8 | nt | 8 | nt
O=C(C1CCN(c2ncnc3c2sc2cccc(F)c23)CC1)N1CCOCC1
→ nt | 2 | nt | -2 | nt
CCC(C)(C(=O)NC1CCCC1)N(C(=O)CNC(C)=O)c1ccccc1 (configuration not stated)
→ nt | 8 | nt | 1 | nt
CCn1cc(C(=O)O)c(=O)c2cc(S(=O)(=O)N(C)C)ccc21
→ nt | 7 | nt | 3 | nt

# Pulled one by one from the list above (three):
# Every second line gives: VCAM-1 down imaging | FPRL1 ligand | VCAM-1 inhibition | FPR binder | VCAM-1 up imaging
O=C(NC1CCCC1)C1CCN(S(=O)(=O)c2cccc3cccnc23)CC1
→ nt | -6 | nt | 7 | nt
CC1CCCCC1NC(=O)C1Cc2ccccc2CN1S(C)(=O)=O (configuration not stated)
→ nt | -1 | nt | 4 | nt
COc1ccc(NC(=O)CCS(=O)(=O)c2ccc3c(c2)CCCN3C(C)=O)cc1
→ nt | 8 | nt | 8 | nt

# A portion of the library; count on the stated rates, not on these rows.
